Screening data: PubChem, ICCB-Longwood Screening Facility, Harvard Medical School
HCMV NEC inh = inhibitors of HCMV UL50-UL53 nuclear egress complex interaction; HTRF UL50-UL53 interaction, normalized percent inhibition; inhibition, % (concentration not given with the values); hit rate 0.15% among 190,000;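 active = both replicates at 50% or more, plus weaker picks with an unusually low signal ratio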;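 also: stock transfer was 100 nL into about 20 µL; 0% = negative control wells and 100% = wells with untagged competitor protein; inactives centre near -12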
GIV-Gai inh = blocks GIV peptide binding to rat Galpha-i3; P08753; percent of control (FP), % (test concentration not listed); hit rate 0.42% among 210,000; AID 1224905; Galpha-i3/FITC-GIV peptide fluorescence polarization, 90 min; active compounds read low; scaled: aluminum fluoride 0%, vehicle 100%;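 active = replicate mean at 85% of control or lower, very high polarization wells dropped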;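 also: lower values mean more displacement of the GIV peptide from Galpha-i3; wells of about 15 µL received 100 nL stock; the first replicate is given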
Target sequence (P08753 whole entry, looked up): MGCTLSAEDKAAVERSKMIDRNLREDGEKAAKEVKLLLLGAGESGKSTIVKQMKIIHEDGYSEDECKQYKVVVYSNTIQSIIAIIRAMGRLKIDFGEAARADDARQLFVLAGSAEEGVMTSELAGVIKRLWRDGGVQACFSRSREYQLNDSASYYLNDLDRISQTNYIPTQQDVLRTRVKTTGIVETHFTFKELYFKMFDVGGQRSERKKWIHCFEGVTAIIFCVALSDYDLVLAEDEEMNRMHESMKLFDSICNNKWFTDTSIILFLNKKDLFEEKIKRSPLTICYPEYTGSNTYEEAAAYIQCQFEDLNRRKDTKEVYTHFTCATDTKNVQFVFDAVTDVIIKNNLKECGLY
Sa growth inh = blocks Staphylococcus aureus growth; S. aureus RN4220 growth, OD600, 20 h, 42 °C; active compounds read low; relative growth, % (no concentration beside the values); hit rate 0.53% among 170,000; AID 720641;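 active = growth at 42 °C up to 50% and 20 or more points under that at 30 °C, or under 10% at both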;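 also: 300 nL library stock went into each well; scaled to the means of positive and negative controls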
Sa growth inh second temp = also measured in Sa growth inh; calls as there; relative growth, %; measured here: growth at 30 °C;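 optical density after 20 h as mean of two plates; 100% = untreated growth and lower means inhibition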
* hit, by the source's call.

For Cc1cnc2c(c1SCC(=O)N(C)c1ccccc1)c(=O)n(C)c(=O)n2C the results were GIV-Gai inh 108, Sa growth inh 125 and Sa growth inh second temp 88.
Screening CCn1cc(/C=C(\NC(=O)c2ccccc2F)C(=O)N2CCN(C)CC2)c2ccccc21 returned HCMV NEC inh -2, GIV-Gai inh 106, Sa growth inh 118 and Sa growth inh second temp 88.
For CC1=NN(C(C#N)c2ccccc2)C(C)(C)C1 (stereo not drawn) the results were HCMV NEC inh 11, GIV-Gai inh 108, Sa growth inh 93 and Sa growth inh second temp 59.
`O=C(NC1(C(F)(F)F)C(=O)Nc2c1c(=O)[nH]c(=O)n2-c1ccc(Cl)cc1)c1ccccc1F` (stereo not drawn) gave GIV-Gai inh 108, Sa growth inh 105 and Sa growth inh second temp 102.
Clc1ccccc1/C=N/c1nc2ccccc2n1CCN1CCCCC1 was read as HCMV NEC inh -13, Sa growth inh 139 and Sa growth inh second temp 84.
For CC(C)(C)CC(=O)Nc1ccc2c(c1)OCCO2 the results were HCMV NEC inh -14, GIV-Gai inh 106, Sa growth inh 109 and Sa growth inh second temp 80.
Screening CC1(C)Cc2c(sc(NC(=O)CN3C(=O)C4CC=C(Cl)CC4C3=O)c2C#N)CO1 (stereo not drawn) returned HCMV NEC inh -10 and GIV-Gai inh 105.
CCC(=O)Nc1sccc1C(N)=O was read as HCMV NEC inh -28, GIV-Gai inh 102, Sa growth inh 103 and Sa growth inh second temp 84.
CC(=O)Nc1ccc(NC(=O)c2ccc3c(c2)CCN3S(=O)(=O)c2ccc(C)cc2)cc1 was read as HCMV NEC inh -38, GIV-Gai inh 102, Sa growth inh 99 and Sa growth inh second temp 87.
`Cc1sc(-c2ccno2)cc1S(=O)(=O)N1CCOCC1` gave HCMV NEC inh -2 and GIV-Gai inh 105.
O=C(NCc1ccccc1Cl)c1cccc(-n2cnc3cccnc32)c1 was read as HCMV NEC inh 8 and GIV-Gai inh 104.
`Cc1ccc(S(=O)(=O)c2cnc(SCC(=O)Nc3cccc(Cl)c3)nc2N)cc1C` gave HCMV NEC inh -7, GIV-Gai inh 99, Sa growth inh 105 and Sa growth inh second temp 84.
`CC1CCCCN1Cc1nnc(-c2ccccc2)o1` (stereo not drawn) gave HCMV NEC inh -14 and GIV-Gai inh 99.
Screening Fc1cccc(F)c1C=Nc1ccc2c(c1)OCCO2 returned HCMV NEC inh -16, Sa growth inh 79 and Sa growth inh second temp 71.
CCOC(=O)C1C2C=CC3(CN(CC(C)C)C(=O)C13)O2 (stereo not drawn) was read as GIV-Gai inh 105, Sa growth inh 115 and Sa growth inh second temp 94.
Screening CCOc1ccccc1-n1nnc(C(N)=O)c1C returned GIV-Gai inh 101, Sa growth inh 88 and Sa growth inh second temp 86.
CSc1nc2ccccc2n1CC(=O)N1CCCCC1 was read as HCMV NEC inh 6, GIV-Gai inh 109, Sa growth inh 104 and Sa growth inh second temp 96.
Cc1ccc(NC(=O)COC(=O)c2cnc3sccn3c2=O)cc1C was read as HCMV NEC inh -21, Sa growth inh 80 and Sa growth inh second temp 89.
For Cc1ccc(NC(=O)Cn2c(=O)n(CC(=O)NCCc3ccccc3)c(=O)c3ccccc32)cc1 the results were HCMV NEC inh -4, GIV-Gai inh 105, Sa growth inh 118 and Sa growth inh second temp 95.
Screening Cc1ccc2c(c1)n(Cc1cccc(F)c1)c(=O)c1nc(C(=O)NCCCN(C)Cc3ccccc3)nn12 returned HCMV NEC inh 4 and GIV-Gai inh 104.
For Cc1ccccc1NC(=O)CCS(=O)(=O)c1cccc2nonc12 the results were HCMV NEC inh -12, GIV-Gai inh 107, Sa growth inh 106 and Sa growth inh second temp 97.
Screening Cc1ccccc1Cc1nc2ccccc2n1CC(O)COc1ccccc1 (stereo not drawn) returned HCMV NEC inh -20 and GIV-Gai inh 110.
Screening O=C(c1ccco1)N1CCN(c2ncnc3nc[nH]c23)CC1 returned GIV-Gai inh 104, Sa growth inh 115 and Sa growth inh second temp 89.
Screening Cc1ccc(OCC(=O)Nc2nnc(SCc3cc(=O)n4cccc(C)c4n3)s2)cc1 returned GIV-Gai inh 101, Sa growth inh 78 and Sa growth inh second temp 84.
Cc1ccc(C)c(C(=O)O)c1 was read as HCMV NEC inh 4, Sa growth inh 109 and Sa growth inh second temp 103.
For CCC1CCc2nc3sc(C(=O)Nc4ccc(F)c(Cl)c4)c(N)c3cc2C1 (stereo not drawn) the results were HCMV NEC inh -3, GIV-Gai inh 103, Sa growth inh 111 and Sa growth inh second temp 91.
O=S(=O)(c1cccc(-c2cn3cccnc3n2)c1)N1CCCC1 was read as HCMV NEC inh -24, GIV-Gai inh 103, Sa growth inh 103 and Sa growth inh second temp 72.
For COc1cccc(N2C(=O)NC(=O)/C(=C\c3ccc(N(C)C)c([N+](=O)[O-])c3)C2=O)c1 the results were HCMV NEC inh -51 and GIV-Gai inh 108.
COc1ccc2cc3n(c2c1)CC(C)(C(=O)NC1CCCC1)N(C1CCC(C)CC1)C3=O (stereo not drawn) was read as HCMV NEC inh -8 and GIV-Gai inh 101.
C=Cn1c(C(=O)O)cc(CC)c1-c1ccccc1 was read as HCMV NEC inh -5, GIV-Gai inh 106, Sa growth inh 137 and Sa growth inh second temp 119.
CCCC/C(C)=N/n1c(-c2ccco2)csc1=NC was read as HCMV NEC inh -40, Sa growth inh 87 and Sa growth inh second temp 82.
`COc1ccc(CN2C(=O)c3ccc(-c4ccccc4)n3CC2(C)C(=O)NC2CCCC2)cc1` (stereo not drawn) gave HCMV NEC inh -10 and GIV-Gai inh 96.
CC(C)C(=O)Nc1ccc(N2CCN(CC(=O)NC(C)(C)C)CC2)cc1C(=O)O was read as HCMV NEC inh -34 and GIV-Gai inh 99.
`Cc1ccccc1CC(=O)N1CCC2(CC1)Nc1ccc(C)c(C)c1-n1cccc12` gave HCMV NEC inh -28 and GIV-Gai inh 102.
CCOc1ccccc1NC(=O)CN1CCCN(Cc2cccc(Cl)c2)S1(=O)=O was read as GIV-Gai inh 99, Sa growth inh 103 and Sa growth inh second temp 73.
Screening NC(=O)Cn1nc(-c2ccc(Cl)cc2)ccc1=O returned HCMV NEC inh -77, GIV-Gai inh 100, Sa growth inh 111 and Sa growth inh second temp 96.
For CNc1nc(-c2ccccn2)nc(C)c1Cl the results were HCMV NEC inh -3, GIV-Gai inh 97, Sa growth inh 148 and Sa growth inh second temp 81.
`COc1ccc(N2C(=O)CCS2(=O)=O)cc1S(=O)(=O)Nc1ccc(F)cc1` gave HCMV NEC inh -6 and GIV-Gai inh 97.
Screening COc1ccc(-c2c(C)oc3cc(OCC(O)CN4CCC(C(N)=O)CC4)ccc3c2=O)cc1 (stereo not drawn) returned HCMV NEC inh -8, Sa growth inh 91 and Sa growth inh second temp 89.
Screening COC(=O)C(NS(=O)(=O)c1ccc(F)cc1)c1ccccc1 (stereo not drawn) returned HCMV NEC inh -11, GIV-Gai inh 107, Sa growth inh 115 and Sa growth inh second temp 94.
CCOc1ccc(C(=O)NCc2nc3cccnc3n2Cc2ccc(F)cc2)cc1OCC was read as GIV-Gai inh 100, Sa growth inh 108 and Sa growth inh second temp 77.
`CCC1CN(C(=O)n2ccnc2)c2ccccc2O1` (stereo not drawn) gave HCMV NEC inh -15, GIV-Gai inh 106, Sa growth inh 86 and Sa growth inh second temp 85.
Screening CCc1c(C)nc(SCC(=O)Nc2ccc3c(c2)OCCO3)[nH]c1=O returned HCMV NEC inh 20, GIV-Gai inh 104, Sa growth inh 72 and Sa growth inh second temp 96.
`Cc1ccc(NC(=O)C2=CC(c3cccs3)=NS(=O)(=O)N2C)cc1` gave HCMV NEC inh -25, GIV-Gai inh 100, Sa growth inh 108 and Sa growth inh second temp 101.
`CCc1ccc(-c2csc(-c3cc4cc(Br)ccc4oc3=O)n2)cc1` gave GIV-Gai inh 122, Sa growth inh 112 and Sa growth inh second temp 107.
`O=C(O)c1ccc(-c2ccc(C(=O)O)s2)s1` gave HCMV NEC inh -77, GIV-Gai inh 96, Sa growth inh 113 and Sa growth inh second temp 102.
Screening Cc1ccc(Cl)cc1N1CCN(C(=O)c2cn(CC(C)C)c(=O)c3c2c2ccccc2n3C)CC1 returned HCMV NEC inh -6, GIV-Gai inh 102, Sa growth inh 95 and Sa growth inh second temp 90.
For Cc1c(C(=O)NCC(c2ccc(Cl)cc2)N2CCOCC2)oc2ccccc12 (stereo not drawn) the results were HCMV NEC inh -34, GIV-Gai inh 102, Sa growth inh 101 and Sa growth inh second temp 84.
O=c1[nH]c(SCc2ccc([N+](=O)[O-])cc2)nc2c1CCCC2 was read as HCMV NEC inh -32, GIV-Gai inh 100, Sa growth inh 106 and Sa growth inh second temp 91.
For COc1cccc(NC(=O)CSc2ncc3c(n2)-c2ccc(Cl)cc2N(C)S3(=O)=O)c1 the results were GIV-Gai inh 97, Sa growth inh 94 and Sa growth inh second temp 97.
Screening CCOc1ccc(-c2c(C)nn3c(C)c(C(=O)NCc4ccc5c(c4)OCO5)cnc23)cc1OCC returned HCMV NEC inh -26 and GIV-Gai inh 105.
For O=C(Cn1c(=O)cnc2ccccc21)NCC(F)(F)F the results were HCMV NEC inh -50, Sa growth inh 98 and Sa growth inh second temp 85.
`O=C(NCC(=O)c1ccccc1)/C(=C/c1cccs1)c1ccccc1` gave HCMV NEC inh -9 and GIV-Gai inh 100.
Cc1c(N=c2c(=O)c3ccccc3c2=O)c(=O)n(-c2ccccc2)n1C was read as GIV-Gai inh 62*, Sa growth inh 86 and Sa growth inh second temp 82.
CCOc1ccc(Br)cc1CNCCSc1nnnn1-c1ccccc1 was read as HCMV NEC inh -16, GIV-Gai inh 99, Sa growth inh 102 and Sa growth inh second temp 67.
For CC(C)N(Cc1ccccc1)C(=O)CCS(=O)(=O)c1ccc2c(c1)oc(=O)n2C the results were GIV-Gai inh 111, Sa growth inh 97 and Sa growth inh second temp 90.
`CCOC(=O)C1=C(N)N2C(=O)C(C)SC2=C(C(=O)OC)C1c1cccc(OC)c1` (stereo not drawn) gave HCMV NEC inh 6, Sa growth inh 101 and Sa growth inh second temp 90.
For O=C(CN1C(=O)c2cccnc2Oc2ccc(Cl)cc21)NCc1ccccc1 the results were HCMV NEC inh -28, GIV-Gai inh 97, Sa growth inh 95 and Sa growth inh second temp 76.
For OC(C#CCC(O)c1ccccc1)c1ccccc1 (stereo not drawn) the results were HCMV NEC inh -16, GIV-Gai inh 103, Sa growth inh 91 and Sa growth inh second temp 83.
`Cc1oc2c(CN3CCCCC3)c(O)ccc2c(=O)c1Oc1ccc(Cl)cc1` gave HCMV NEC inh 8, Sa growth inh 108 and Sa growth inh second temp 107.
Screening COC(=O)[C@@H]1CC(O)CN1S(=O)(=O)c1ccc(C)cc1 (stereo partly drawn) returned HCMV NEC inh 2, Sa growth inh 96 and Sa growth inh second temp 96.
Fc1cc(F)cc(NC(=S)NCCN(C2CCCCC2)C2CCCC2)c1 was read as GIV-Gai inh 105, Sa growth inh 102 and Sa growth inh second temp 81.
`CCOC(=O)C1(C)C=C(Nc2cccc(C(=O)O)c2)C(=O)N1c1ccccc1` (stereo not drawn) gave HCMV NEC inh 1, GIV-Gai inh 107, Sa growth inh 107 and Sa growth inh second temp 89.
Screening CCOc1ccccc1NC(=O)CN1C(=O)COc2ccc(S(=O)(=O)Nc3ccccc3)cc21 returned GIV-Gai inh 108, Sa growth inh 99 and Sa growth inh second temp 77.

Of the compounds above, these contain an aryl thioether with sulfur outside any ring.
For Cc1cnc2c(c1SCC(=O)N(C)c1ccccc1)c(=O)n(C)c(=O)n2C the results were GIV-Gai inh 108, Sa growth inh 125 and Sa growth inh second temp 88.
`Cc1ccc(S(=O)(=O)c2cnc(SCC(=O)Nc3cccc(Cl)c3)nc2N)cc1C` gave HCMV NEC inh -7, GIV-Gai inh 99, Sa growth inh 105 and Sa growth inh second temp 84.
CSc1nc2ccccc2n1CC(=O)N1CCCCC1 was read as HCMV NEC inh 6, GIV-Gai inh 109, Sa growth inh 104 and Sa growth inh second temp 96.
Screening Cc1ccc(OCC(=O)Nc2nnc(SCc3cc(=O)n4cccc(C)c4n3)s2)cc1 returned GIV-Gai inh 101, Sa growth inh 78 and Sa growth inh second temp 84.
Screening CCc1c(C)nc(SCC(=O)Nc2ccc3c(c2)OCCO3)[nH]c1=O returned HCMV NEC inh 20, GIV-Gai inh 104, Sa growth inh 72 and Sa growth inh second temp 96.
O=c1[nH]c(SCc2ccc([N+](=O)[O-])cc2)nc2c1CCCC2 was read as HCMV NEC inh -32, GIV-Gai inh 100, Sa growth inh 106 and Sa growth inh second temp 91.
For COc1cccc(NC(=O)CSc2ncc3c(n2)-c2ccc(Cl)cc2N(C)S3(=O)=O)c1 the results were GIV-Gai inh 97, Sa growth inh 94 and Sa growth inh second temp 97.
CCOc1ccc(Br)cc1CNCCSc1nnnn1-c1ccccc1 was read as HCMV NEC inh -16, GIV-Gai inh 99, Sa growth inh 102 and Sa growth inh second temp 67.
